Screening results from PubChem.
Bst PK mod: alters activity of Bacillus stearothermophilus pyruvate kinase; 1.2% of 51,000 active; Potency, µM; partly purified Bacillus stearothermophilus pyruvate kinase, luminescence ATP production; ribose 5-phosphate activator present at AC10; in the data active means potency below about 11 µM; inconclusive means mostly about 12 µM to 25 µM; inactive means weaker than that;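 the screen sought inhibitors and activators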;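 also: potency is read from the fitted curve at half-maximal effect; scaled between full activation by ribose 5 phosphate and full inhibition by luteolin; about four in five hits inhibit and the cells do not say which; series up to 57 µM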
YjeE inh: inhibitors of E. coli YjeE (TsaE). P0AF67. purified YjeE, fluorescence polarisation of a bound ADP probe. Potency, µM. 0.05% of 71,000 active. AID 605; active = well fitted falling curve; inconclusive = weaker or top-dose-only fall, or a rising curve; inactive = flat or poorly fitted curve;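 also: top concentration of the series not given in the record; excess ADP was the control for the full effect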
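Purified YjeE (10 uM) with BODIPY Texas Red-labeled ADP probe (2 uM); compounds pin-transferred, 15 min at room temperature. Binding inhibition read as decreased fluorescence polarization; ADP titration as control.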
Starred values were filed as active, the others as inactive; i = inactive; ? = inconclusive; · = no result given.

SMILES	Bst PK mod	YjeE inh
O=C(COC(=O)C1CCN(S(=O)(=O)c2cccs2)CC1)c1cc2ccccc2o1	>57	i
CC1Cc2nc(SCC(=O)Nc3ccc4c(c3)OCO4)n(CCc3ccccc3)c(=O)c2S1 (configuration not stated)	·	i
O=C(c1ccccc1Oc1nnnn1-c1ccccc1)N1CCOCC1	>57	i
COC(=O)c1ccc(C(NC(=O)OCc2ccccc2)/C(=C/[C@@H](C)C(=O)NCc2ccc(OC)c(OC)c2)c2cccnc2)cc1 (some centres not stated)	·	i
Cc1onc(-c2ccccc2Cl)c1C(=O)Nc1cccc2cccnc12	·	i
CCC(C)(C(=O)NC1CCCC1)N(Cc1ccco1)C(=O)c1ccccn1 (configuration not stated)	>57	i
CC(C)Cc1nc2oc3c(N4CCN(C)CC4)ncnc3c2c2c1CCCC2	>57	i
COc1ccc(-c2cc(NCc3ccccn3)n3ncnc3n2)cc1	>11	i
CC(=O)NCCn1c(SCC(=O)OCc2ccccc2)nc2ccccc2c1=O	>57	i
Cc1csc2nnc(N)n12	>57	i
Cc1cccc(NC(=O)COc2ccccc2)c1	>57	i
CC(C)(C)Oc1ncc(Br)c(OC(C)(C)C)n1	>57	i
COc1ccc(OC)c(-n2c(-c3cccc(O)c3)n[nH]c2=S)c1	>57	i
Cn1nnc(NC(=O)c2cccc(F)c2)n1	>57	i
CN(c1ccc(C(=O)N2CCc3ccccc3C2)cc1)S(C)(=O)=O	>57	i
CS(=O)(=O)N1CCC2(CCCN(c3ncccn3)C2)CC1	·	i
N#Cc1cccc(-c2nc(NCc3cccs3)c3ccccc3n2)c1	·	i
CCC(C)(C(=O)NC1CCCC1)N(C(=O)c1cnccn1)c1c(C)n(C)n(-c2ccccc2)c1=O (configuration not stated)	>57	i
CCn1c(SCC(=O)Nc2cccc(NC(C)=O)c2)nnc1C(C)C	>57	i
CCNC(=O)CCCOc1ccc(Cl)cc1Cl	·	i
Cc1cc(C(=O)CSc2nc3ccccc3c(=O)[nH]2)c(C)n1C	>57	i
O=C(c1ccco1)N1CCN(C(c2ccccc2F)c2nnnn2Cc2cccs2)CC1 (configuration not stated)	>57	i
Cn1c(=O)c2[nH]c(CCCCC(=O)O)nc2n(C)c1=O	·	i
O=C(c1ccc2c3c(cccc13)C(=O)N(O)C2=O)N1CCCCC1	>26	·

Record cards, from the list above. Screens in order: Bst PK mod	YjeE inh
`Cn1nnc(NC(=O)c2cccc(F)c2)n1` reads >57	i
`Cn1c(=O)c2[nH]c(CCCCC(=O)O)nc2n(C)c1=O` reads ·	i
`CCn1c(SCC(=O)Nc2cccc(NC(C)=O)c2)nnc1C(C)C` reads >57	i
`CCNC(=O)CCCOc1ccc(Cl)cc1Cl` reads ·	i

(cont.)
SMILES	Bst PK mod	YjeE inh
CCCc1nnc(NC(=O)CC(=O)OCC)s1	·	i
CC1CC(N(C(=O)C2CC2)c2ccccc2)c2ccccc2N1C(=O)C1CC1 (configuration not stated)	>57	i
Cc1cc2oc(=O)c3c(c2cc1OC(=O)c1ccco1)CCCC3	>57	i
COC(=O)c1c(C)oc(C)c(C(=O)OC)c1=O	>57	i
CCOC(=O)C1=C(C)N=C2SC(C)C(=O)N2C1c1ccc(OC(C)=O)c(OC)c1 (configuration not stated)	>26	·
COc1cccc(CNC(=O)CCNS(=O)(=O)c2cccs2)c1	>57	i
COc1ccc(CNc2ccc(-c3ccc(OC)cc3)nn2)cc1	>57	i
O=C(c1cccs1)N(Cc1nc2sc3c(c2c(=O)[nH]1)CCCC3)C1CCCC1	>57	i
CC(NC(=O)Cn1ccsc1=N)C12CC3CC(CC(C3)C1)C2 (configuration not stated)	>57	i
CN(C(=O)C(Cl)Cl)c1ccc(OC(=O)c2ccco2)cc1	>11	i
O=c1/c(=C/c2cccc3ccccc23)sc2ncnn12	·	i
CN(C)S(=O)(=O)c1ccc2c(c1)C(CC(=O)O)NC2=O (configuration not stated)	>57	i
C[C@H](CO)NC(=O)[C@@H]1C[C@H]1[C@@H](NP(=O)(c1ccccc1)c1ccccc1)c1ccccc1	·	i
Cc1noc(C)c1S(=O)(=O)N1CCCC(C(=O)NCCC2=CCCCC2)C1 (configuration not stated)	>57	i
O=C(c1cn(-c2ccccc2)nc1-c1ccccc1)N1CCOCC1	>57	i
COc1ccc2sc(C)nc2c1NC(C)=O	>57	i
COCCN1Cc2cccc(C(=O)Nc3c(C)cc(C)cc3C)c2C1=O	>57	i
O=C(Nc1ccccc1)N(C1=NCCCCS1)c1ccccc1	>57	i
CC(=O)/C(C[N+]1(C)CCCCC1)=N\O	>57	i
O=C(Oc1ccccc1)N1CCC2(CC1)CCN(c1ccncc1)CC2	·	i
COc1ccc2c(c1)N(C(=O)CSc1n[nH]c(C)n1)C(C)(C)C=C2C	>57	i
O=C(c1cccnc1)N1CCC(c2nc3ccccc3[nH]2)CC1	>57	i
CCc1cccc(NC(=O)Nc2cccs2)c1	·	i
COc1ccccc1NC(=O)C(C)NS(=O)(=O)c1ccccc1 (configuration not stated)	>57	i
C=CCNC(=O)C1CC(c2cccc(OC)c2)=NO1 (configuration not stated)	>57	i
COc1ccc(N2CSC3=C(C#N)C(c4ccc(OC)c(OC)c4)CC(=O)N3C2)c(OC)c1 (configuration not stated)	·	i
CCn1c(SCC(=O)Nc2cc(F)ccc2C)nnc1-c1ccccc1O	>57	i
COc1cccc(NC(=O)CSc2nc3n[nH]c(C)c3c(=N)n2-c2cccc(OC)c2)c1	>57	i
CCN(CC)CCNc1ccc(CO)c2sc3ccccc3c(=O)c12	·	i
Cc1ccc(-c2nnc(SCC(=O)O)n2N)cc1	>57	i
COCCn1c(COc2ccc(C)cc2)nc2ccccc21	i	i
CCOC(=O)Cn1cc(-c2ccccc2)nn1	·	i
Cc1nc(N2CCOCC2)c2nc(-c3ccccc3)n(CCCN3CCOCC3)c2n1	·	i
CCOc1ccc(N(CC(=O)N2CCN(c3ccccc3)CC2)S(=O)(=O)c2c(C)noc2C)cc1	·	i
CCCCNN	·	i
CC(C)C1Cc2c(C#N)c(N)n(C)c(=S)c2CO1 (configuration not stated)	>26	·

Looked up above:
Bst PK mod, O=C(Nc1ccccc1)N(C1=NCCCCS1)c1ccccc1 = >57
Bst PK mod, CC(NC(=O)Cn1ccsc1=N)C12CC3CC(CC(C3)C1)C2 (configuration not stated) = >57
Bst PK mod, Cn1nnc(NC(=O)c2cccc(F)c2)n1 = >57

Later entries.
SMILES	Bst PK mod	YjeE inh
O=C(Cn1nnc(-c2ccncc2)n1)N(C1CCCCC1)C1CCCCC1	>57	i
O=C1C(Cl)=C(N2CCOCC2)C(=O)N1c1ccccc1Cl	·	i
Cc1ccc(C)n1-n1c(C)nc2sc3c(c2c1=O)CCCCC3	>57	i
O=C(Nc1nc(-c2ccc3c(c2)OCO3)cs1)c1ccncc1	·	i
COc1ccc(N2CCN(C(CNC(=O)C3CCCCC3)c3cccnc3)CC2)cc1 (configuration not stated)	>57	i
Cc1onc(-c2ccccc2)c1C(=O)Nc1cc(C(F)(F)F)ccc1N1CCOCC1	>57	i
O=C(CNC(=O)c1ccccc1)NC1(C(=O)NC2CCCC2)CCCCC1	>57	i
COc1ccc(S(=O)(=O)N2CCc3ccccc32)cc1C(=O)OCc1nnc(-c2ccccc2)o1	>57	i
COc1cccc(NC(=O)Nc2cccs2)c1	i	i
CCCc1nnc(NC(=O)CCC(=O)N2CCCCC2CC)s1 (configuration not stated)	>57	i
Cc1ccc(C(c2nnnn2Cc2cccs2)N2CCN(C(=O)c3ccco3)CC2)cc1 (configuration not stated)	>57	i
COC(=O)c1[nH]c2ccc(C)cc2c1NC(=O)CN1CCC(C)CC1	>57	i
COc1ccc(CNC(=O)C2CCCN(S(=O)(=O)c3cnc[nH]3)C2)cc1 (configuration not stated)	·	i
O=C(Cc1ccc(S(=O)(=O)N2CCCC2)s1)Nc1nc2c(s1)CCCC2	>57	i
Nn1c(SCC(=O)Nc2ccc3c(c2)OCCO3)nnc1-c1ccccn1	>57	i
S=c1[nH]nc(COc2ccc(Cl)cc2)o1	3.9*	i
O=C(CSc1nnc(-c2ccccc2)c(-c2ccccc2)n1)N1CCOCC1	>26	·
CC(=O)c1ccc(Oc2cc(C)nc(-n3nc(C)cc3C)n2)cc1	·	i
CCOC(=O)CCc1c(C)c2ccc(OCC(=O)OC(C)C)cc2oc1=O	>57	i
CCOC(=O)C1CCN(c2ncnc3c2[nH]c2cccc(OC)c23)CC1	·	i
COc1cc(C(=O)NC2=NCCS2)ccc1OCc1c(C)noc1C	>57	i
COc1cccc(-n2c(SCC(=O)NC3CCCCC3)nc3n[nH]c(C)c3c2=N)c1	>57	i
CCC(OC(=O)CCc1nc2ccccc2[nH]c1=O)C(=O)c1ccccc1 (configuration not stated)	>57	i
CC(C)Nc1oc(Cc2cccc3ccccc23)nc1C#N	?	i
CC(=O)N1CCc2cc(S(=O)(=O)NC(C(=O)Nc3ccc4c(c3)OCCO4)C(C)C)ccc21 (configuration not stated)	>57	i
CC(=O)Nc1ccc(NC(=O)Cn2cc3c(n2)CCC(C)C3)cc1 (configuration not stated)	>57	i
COc1ccc(NC(=O)c2cnc(C)cn2)cc1-n1cnnn1	>57	i
O=C(Nc1ccc(C2CCCCC2)cc1)C1CCCN(c2ncccn2)C1 (configuration not stated)	>57	i
O=C(Nc1ccc2oc(-c3ccccc3Cl)nc2c1)c1ncn[nH]1	·	i
Cc1cc(NC(=O)Cn2nnc3sc4c(c3c2=O)CCCC4)no1	>57	i
O=C(c1ccccc1)c1cccn1CC(=O)N1CCN(c2ccc(F)cc2)CC1	>57	i
COC(=O)c1cc(C)sc1NC(=O)CCCC(=O)O	·	i
CCOC(=O)N1CCN(C(=O)Cn2cc3c(n2)CCCC3)CC1	>57	i
COc1cc(NC(=O)c2ccc(C)cc2)c(OC)cc1NC(=O)CN1CCOCC1	·	i
COc1ccc(CN2CC(C(=O)NCCCN3CCN(C)CC3)CC2=O)cc1 (configuration not stated)	>57	i
COC(=O)N1CCC2(CC1)CCN(C(c1ccccc1)c1ccccc1)CC2	·	i
CCOC(=O)c1cc2c(=O)n3ccccc3nc2n(CCCOC)c1=NC(=O)C(C)(C)C	>57	i
CCCCc1c(O)nc(SCC(=O)N2CCOCC2)n(-c2ccccc2C)c1=O	>57	i
Cc1cc(C(C)(C)C)c(O)c(C)c1CC1=NCCN1	>26	i
CCN1C(=O)C2(/C(=C(\O)c3ccc4c(c3)OCCO4)C(=O)C(=O)N2CCCOC)c2ccccc21 (configuration not stated)	>57	i
CN(C(=O)C1CCCO1)c1nnc(-c2ccccn2)s1 (configuration not stated)	·	i
COc1ccc(C2C(C#N)=C(N)SC(N)=C2C#N)cc1OC	>26	·
O=C1c2ccccc2S(=O)(=O)N1CCOc1ccc(F)cc1	>57	i
N#Cc1c(NC(=O)C(F)(F)F)sc2c3c(=O)c4ccccc4c(=O)c=3oc3ccccc3c12	·	i
Cc1oc(-c2ccc(F)cc2)cc1-c1nn2c(-c3ccoc3C)nnc2s1	·	i
COCC(=O)N1CCC2(CCCN(Cc3ccccc3)C2)CC1	·	i
Cc1cccc(CCNC(=O)C2CCC(CNc3c(N4CCCC4)c(=O)c3=O)CC2)c1 (configuration not stated)	·	i
COc1ccccc1N1CCN(C(=O)c2ccc(CS(=O)(=O)c3ccccc3OC)o2)CC1	>57	i
COc1ccc2c(=O)c(N3C(=O)c4ccccc4C3=O)coc2c1	>57	i
CN(C)CCNC(=O)Cc1c(C(=O)O)n(C)c2ccccc12	>57	i
COc1ccc2cc(C(c3nnnn3C3CCCCC3)N3CCCCCC3)c3nnnn3c2c1 (configuration not stated)	>57	i
COCCn1c(=O)c(C)nc2cnc(Oc3ccccc3)nc21	·	i
COc1ccccc1CNC(=O)c1ccc(NS(C)(=O)=O)cc1	>57	i
Cc1cc(S(=O)(=O)N2CCN(c3ncccn3)CC2)ccc1-n1cnnn1	>57	i
Cc1nc(NC(=O)CCCC(=O)Nc2nc(C)c(C)s2)sc1C	>57	i
Cc1cccc(-n2nnc(C(=O)NCc3ccccn3)c2N)c1	>57	i
O=C(COc1ccc(Cl)cc1)Nc1nc(-c2cccs2)cs1	·	i
COCCCNC(=O)c1cc(OC)c(OC)c(OC)c1	>57	i
Cc1c(C)c2cc(Cl)c(O)c(CN3CCCC(C)C3)c2oc1=O (configuration not stated)	>11	·
O=C(Nc1nnc(SCc2ccc(F)cc2)s1)c1ccco1	>57	i

Next structures.
SMILES	Bst PK mod	YjeE inh
O=C(O)c1cc(N=Cc2ccccc2O)cc(C(=O)O)c1	·	i
COC(=O)COc1nsnc1N1CCOCC1	>57	i
c1csc(-c2cn3c(n2)SCC3)c1	·	i
Cn1c(SCc2ccccc2)nnc1-c1cccs1	>57	i
COc1ccccc1N1CCN(CCC(=O)Nc2ccc3c(c2)OCO3)CC1	·	i
CCN(C#N)c1nc(NC(C)C)nc(NC(C)C)n1	>57	i

By substructure, the entries above with a cyano group
SMILES	Bst PK mod	YjeE inh
N#Cc1cccc(-c2nc(NCc3cccs3)c3ccccc3n2)c1	·	i
COc1ccc(N2CSC3=C(C#N)C(c4ccc(OC)c(OC)c4)CC(=O)N3C2)c(OC)c1 (configuration not stated)	·	i
CC(C)C1Cc2c(C#N)c(N)n(C)c(=S)c2CO1 (configuration not stated)	>26	·
CC(C)Nc1oc(Cc2cccc3ccccc23)nc1C#N	?	i
COc1ccc(C2C(C#N)=C(N)SC(N)=C2C#N)cc1OC	>26	·
N#Cc1c(NC(=O)C(F)(F)F)sc2c3c(=O)c4ccccc4c(=O)c=3oc3ccccc3c12	·	i
CCN(C#N)c1nc(NC(C)C)nc(NC(C)C)n1	>57	i

Some of the compounds tested, so the mix of outcomes need not match the whole.
